gsp antag – qHTS for Antagonists of gsp, the Etiologic Mutation Responsible for Fibrous Dysplasia/McCune-Albright Syndrome: qHTS. gsp-mutant cells, cAMP HTRF, 30 min; control for the full effect not named in the record. Potency, µM (top dose mostly 76.9 µM), for the others: top-dose activity change, negative = inhibition, hits mostly inhibitors. 340,000 compounds, 0.4% hits. AID 624288, 2012; active = falling curve of any shape with a large fitted effect; inconclusive = falling curve, mostly with a smaller effect; inactive = flat or rising curve; cell line not stated here;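 note: intracellular cAMP measured with PDE inhibitor Ro 20-1724 present during compound exposure; potency is the fitted concentration of half-maximal effect; % is set by controls: 0 for no effect and ±100 for the full control effect; nearly all actives have a fitted effect of over 65% in size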
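HTRF cAMP read-out (cAMP-d2 plus anti-cAMP antibody-K in lysis buffer, 30 min RT). Before lysis, cells are exposed to compounds with […] for 30 min at 37C in DPBS containing Ca/Mg, BSA and Tween 20.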
Six1-Eya2 blk – qHTS Assay for Inhibitors of the Six1/Eya2 Interaction; Homeobox protein SIX1 (Homo sapiens) + Protein phosphatase EYA2 (Homo sapiens), …; AlphaScreen GST-Six1/His-Eya2 binding, biochemical; active compounds read low; control for the full effect not named in the record; activity change, % (test concentration not listed); 360,000 compounds, 0.56% hits; AID 651725, 2012; in the data active = activity change below about -65%; inconclusive = about -30% to -65%; inactive = above about -30%; note: % is set by controls: 0 for no effect and ±100 for the full control effect
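Six1/Eya2 binding was read as AlphaScreen signal after compounds were pinned into GST-Six1 plus His-tagged Eya2 (5X stock 250/500 nM) in pH 8.0 Tris/NaCl/TCEP buffer, beads added, then incubated 1 h, 37 C, dark.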
CtBP-E1A blk – qHTS Assay for Inhibitors of the CtBP/E1A Interaction; CtBP / adenovirus E1A interaction (AlphaScreen); AlphaScreen GST-E1A/His-CtBP binding, 1536-well; active compounds read low; control for the full effect not named in the record; activity change, % (concentration not given with the values); 340,000 compounds, 0.49% hits; AID 651724, 2012; in the data active means activity change below about -65%; inconclusive means about -30% to -65%; inactive means above about -30%; note: % is set by controls: 0 for no effect and ±100 for the full control effect
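Homogeneous bead-based format: GST-tagged E1A captured on glutathione donor beads, His-tagged CtBP on nickel acceptor beads; compounds precede bead addition by 2 h at 37 °C.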
D2 ag – Beta-Arrestin HTS for Positive Allosteric Modulators of the Human D2 Dopamine Receptor: Agonists; D(2) dopamine receptor (Homo sapiens), P14416; DiscoveRx PathHunter D2 beta-arrestin, luminescence, 90 min; 100% = 57 uM dopamine signal; activation, % (test concentration not listed); 360,000 compounds, 0.084% hits; in the data active = activation above about 40%; inconclusive = about 15% to 40%; inactive = below about 15%; note: compound concentration not given in the record; the text of the record calls up to 30% inactive
Target sequence (P14416 whole entry, looked up): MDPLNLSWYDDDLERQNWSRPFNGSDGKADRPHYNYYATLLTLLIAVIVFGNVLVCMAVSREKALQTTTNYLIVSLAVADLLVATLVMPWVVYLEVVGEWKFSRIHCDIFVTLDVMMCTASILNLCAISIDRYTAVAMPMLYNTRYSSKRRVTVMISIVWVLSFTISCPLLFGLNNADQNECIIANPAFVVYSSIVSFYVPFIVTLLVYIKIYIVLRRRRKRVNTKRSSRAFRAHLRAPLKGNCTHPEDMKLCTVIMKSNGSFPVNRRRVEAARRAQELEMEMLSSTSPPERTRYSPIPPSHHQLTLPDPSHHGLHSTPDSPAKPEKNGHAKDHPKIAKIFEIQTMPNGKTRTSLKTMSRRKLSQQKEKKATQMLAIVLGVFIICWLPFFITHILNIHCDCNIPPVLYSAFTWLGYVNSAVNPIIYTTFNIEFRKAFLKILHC
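DiscoveRx PathHunter D2 beta-arrestin cells (2,100/well) attached overnight, then compound-stimulated 90 min at 37 C in HBSS/10 mM HEPES/0.1% Tween-20 buffer; beta-galactosidase complementation read by luminescence after 1 h at ambient temperature. Dopamine 57 uM final (EC100) as control.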
gsp agonist – qHTS for Agonist of gsp, the Etiologic Mutation Responsible for Fibrous Dysplasia/McCune-Albright Syndrome: qHTS | gsp mutant cells, cAMP HTRF, 30 min; control for the full effect not named in the record | Potency, µM (series often up to 76.9 µM), for inactives: top-dose activation (cAMP increase), most hits filed as activators | 340,000 compounds, 0.13% hits; active = well fitted activation curve with a large enough effect; inconclusive = small, poorly fitted or top-dose-only effect, or another doubt; inactive = no such curve, though single readings can be large or run the other way; cell line not stated here;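 note: phosphodiesterase inhibitor Ro 20-1724 added with compounds to block cAMP breakdown; potency is the fitted concentration of half-maximal effect; nearly all actives have a fitted effect of over 60% in size; about a fifth of the inactives were tested at one dose only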
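Cells in DMEM/10% FBS with G418 were pretreated with compounds in DMSO plus […] (300 uM stock) for 30 min at 37C. cAMP was measured by HTRF (cAMP-d2 plus anti-cAMP antibody-K) after 30 min at room temperature.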
D2 PAM – Beta-Arrestin HTS for Positive Allosteric Modulators of the Human D2 Dopamine Receptor: Potentiators; D(2) dopamine receptor (Homo sapiens), P14416; DiscoveRx D2 beta-arrestin cells, luminescence, 90 min; 100% = 57 uM dopamine signal; potentiation, % (concentration not given with the values); 360,000 compounds, 0.23% hits; active = potentiation of 50% or more; inconclusive = 30% to 50%; inactive = 30% or less;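 note: tested on top of an EC20 dose of dopamine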
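D2 cells co-treated with compound plus 50 nM dopamine (EC20) for 90 min at 37 deg C to detect potentiation. Beta-arrestin recruitment was read as enzyme-fragment luminescence after 1 h at ambient temperature. Full response was set by 57 uM dopamine.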
Numbers without * were called inactive; ? = inconclusive; nt = not tested or not shown; [ ] = dose if it differs, or a comment.

SMILES	gsp antag	Six1-Eya2 blk	CtBP-E1A blk	D2 ag	gsp agonist	D2 PAM
Cc1cccc(NC(=O)/C(=C\c2ccco2)NC(=O)c2ccccc2)c1	-11%	-5	0	-0.7	-13%	-16
COc1cc(C)nc(N(C)S(=O)(=O)c2ccccc2Cl)n1	32µM*	7	9	0.5	-1%	-1
Cc1ccc(CCNC(=O)CN2C(=O)COc3ccccc32)cc1	7%	4	5	-3.7	-27%	-5
Cc1ccccc1N(CC(=O)N/N=C/c1ccc(Cl)cc1)C(=O)c1ccccc1	-21%	-11	-12	-0.3	0%	3
CC1(c2ccccc2)NC(=O)N(CC(=O)Nc2ccccc2C(=O)N2CCCCC2)C1=O (centres undefined)	0%	6	1	-5.9	-3%[15.4 µM]	11
COc1ccccc1N1CCN(C(=O)CN(c2cc(C)cc(C)c2)S(C)(=O)=O)CC1	-8%	3	9	1.6	5%	-30
NC(=O)CC(NC(=O)c1cccc(Br)c1)c1ccc(NC2CCCCCCC2)c([N+](=O)[O-])c1 (centres undefined)	-11%	-13	-11	-2.6	nt	-13
COc1ccc(C(=O)NC2CCCCCC2)cc1S(=O)(=O)N1CCOCC1	-20%	24	0	-5.0	-7%	-34
COc1ccc(N(C(=O)c2ccco2)C(C(=O)NC2CCCCC2)c2ccccc2)cc1 (centres undefined)	-5%	18	0	-3.5	-4%	-27
O=C(NCc1ccco1)c1cccc2c1C(=O)N(C1CCCCC1)C2	8%	-1	0	-5.4	15%	-14

Some of the entries above, set out differently.
The line under a structure holds: gsp antag, Six1-Eya2 blk, CtBP-E1A blk, D2 ag, gsp agonist, D2 PAM
CC1(c2ccccc2)NC(=O)N(CC(=O)Nc2ccccc2C(=O)N2CCCCC2)C1=O (centres undefined)
  0%, 6, 1, -5.9, -3%[15.4 µM], 11
COc1ccccc1N1CCN(C(=O)CN(c2cc(C)cc(C)c2)S(C)(=O)=O)CC1
  -8%, 3, 9, 1.6, 5%, -30
NC(=O)CC(NC(=O)c1cccc(Br)c1)c1ccc(NC2CCCCCCC2)c([N+](=O)[O-])c1 (centres undefined)
  -11%, -13, -11, -2.6, nt, -13
COc1ccc(C(=O)NC2CCCCCC2)cc1S(=O)(=O)N1CCOCC1
  -20%, 24, 0, -5.0, -7%, -34
COc1ccc(N(C(=O)c2ccco2)C(C(=O)NC2CCCCC2)c2ccccc2)cc1 (centres undefined)
  -5%, 18, 0, -3.5, -4%, -27

Following part.
SMILES	gsp antag	Six1-Eya2 blk	CtBP-E1A blk	D2 ag	gsp agonist	D2 PAM
O=C(/C=C\Nc1ccccn1)c1ccccc1	11%	2	3	-2.7	-47%[inhibitor]	-20
NCCSC1CC(=O)N(Cc2ccc(F)cc2)C1=O (centres undefined)	9%	-1	9	-1.6	6%[15.4 µM]	-6
Cc1cc(=O)oc(C)c1C(=O)NCCN1CCOCC1	9%	4	1	-3.0	?	8
O=C(NCC1CC1)c1cc(-c2ccccc2)nn1CC1CC(c2cccnc2)=NO1 (centres undefined)	-13%	-2	4	-6.2	20%	3
COc1ccc(NC(=O)c2ccco2)cc1NC(=O)c1ccccc1	-6%	3	18	-0.5	0%	-4
Cc1ccc2c(c1)N(CC(=O)N1CCCCC1c1cccnc1)C(=O)CO2 (centres undefined)	-25%	24	0	-1.8	2%	-9
COc1ccccc1C(=O)NNC(=O)c1cccc([N+](=O)[O-])c1	7%	2	0	-0.6	-3%[15.4 µM]	-4
COc1cc(NC(=O)c2cccnc2)ccc1NC(=O)c1ccccc1Cl	-8%	-2	-1	7.1	-22%	-5
CCOc1cc(C(=O)CCC(=O)OCC(=O)Nc2ccc(F)cc2)ccc1O	-3%	3	2	-5.9	-26%	-21
CCOC(=O)c1c(NC(=S)Nc2cccnc2)sc(C)c1C	?	4	6	-7.0	4%[15.4 µM]	-8
CC1(O)CC(=O)N(c2ccccc2)O1 (centres undefined)	-1%	0	10	1.6	9%	-5
COc1ccc(Cc2c(-c3cccc(Cl)c3)nc3ccc(C)cn23)c(C)c1	nt	-17	-16	-2.6	nt	-7
O=C(O)/C=C\C(=O)NCc1cccnc1	-7%	8	nt	4.7	0%	8
C[C@@H]1CC=C[C@H]2[C@H]1C(=O)N(Cc1ccccc1)[C@H]2c1ccc2ccccc2c1/C=C/c1ccccc1	0%	5	1	-0.9	nt	-8
Cn1c(=O)c2c(nc(NCC3CCCO3)n2Cc2ccccc2)n(C)c1=O (centres undefined)	2%	3	-1	0.3	-2%	-12
CC(C)Cc1nnc(NC(=O)CCC(=O)N2CCC(C)CC2)s1	4%	5	8	1.5	?	-2
COc1cccc(CNC(=O)Cn2cc([N+](=O)[O-])cn2)c1	4%	-1	-7	2.4	-2%[15.4 µM]	0
CC(=O)Nc1ccc2nc(N)sc2c1	6%	4	-12	-4.1	-41%	-2
Cc1ccc(S(=O)(=O)N2CCN(C(=O)COC(=O)COc3ccc(Cl)c(C)c3)CC2)c(C)c1	5%	-7	-20	3.0	9%	10
NC(=O)C1CCN(C(=O)CNC(=O)c2ccc(Br)o2)CC1	9%	4	-13	1.7	-66%[inhibitor]	-12
O=C(CSc1ncccc1C(=O)O)c1ccc2ccccc2c1	?	2	-1	-2.9	-48%[inhibitor]	0
CN(C)S(=O)(=O)c1ccc(C(=O)NCc2nnc(SCC(=O)N3CCCCCC3)o2)cc1	10%	0	1	3.1	14%	-8
COc1cccc(N2CCN(c3nc(-c4ccccc4C)cc(=O)[nH]3)CC2)c1	-15%	-14	?	4.3	-31%[inhibitor]	-5
COc1cccc(C(=O)Nc2cccc(SC)c2)c1	-9%	-16	-10	-4.7	13%	-22
CCc1nc2c(OCc3cccc(Cl)c3)cccn2c1N(C)C(=O)C(C)C	nt	-4	1	-3.8	nt	-6
CCOC(=O)c1c(C)[nH]c(C(=O)CSc2nnc(-c3ccncc3)n2CC)c1C	-1%	-6	-4	1.1	8%	1
COCCn1ccc2c(OCC(=O)NCCc3ccc(OC)c(OC)c3)cccc2c1=O	-6%	3	10	-1.1	-9%	-1
CC(C)COc1ccc(-c2cc(C(=O)NN)[nH]n2)cc1	-11%	3	-10	-5.3	-52%[inhibitor]	-3
COc1ccc2cc(C3=CCCCC3)ncc2c1	1%	9	5	-2.0	nt	-7
O=C(Cn1c(=O)oc2cc(S(=O)(=O)N3CCc4ccccc43)ccc21)NC1CCCC1	-18%	3	4	-6.0	15%	-12
CCCCNC(=O)C1(C)CCCCN1C(=O)c1cncc(Br)c1 (centres undefined)	nt	2	8	-2.1	nt	-9
COC(=O)c1cc(NC(=O)c2ccc(C)cc2)c(=O)oc1C	5%	8	3	-1.4	?	-5
CC(=O)Nc1ccc(-n2cnnn2)cc1	9%	3	2	-0.8	?	0
CN(CC(=O)NCC(c1ccccc1)N1CCCC1)S(=O)(=O)c1ccc(Cl)cc1 (centres undefined)	14%	-4	13	-3.2	-4%	-14
Cc1cc2c(c(=O)n1CCN(C)C)C(c1ccc(Cl)cc1)C(C#N)=C(N)O2 (centres undefined)	-5%	1	5	-1.0	-10%	-8
CCC1CN(C(=O)N2CCC(C(=O)Nc3ccccc3OC)CC2)c2ccccc2O1 (centres undefined)	-19%	-1	3	-8.7	?	5
O=C(Cc1ccc(-n2c(=S)[nH]c3ccccc3c2=O)cc1)N1CCN(c2ccccc2)CC1	-22%	-5	-5	-0.6	-11%	-10
Cc1ccc(S(=O)(=O)N2CCN(C(=O)c3ccccc3-c3nc4ccccc4s3)CC2)c(C)c1	6%	7	-9	-1.8	-6%	15
Cc1ccc(NC(=O)ON=C2CCCC2)cc1	8%	20	9	-0.3	3%	1
CCCCC(CC)CN=C(N)NC(N)=NCCCCCCN=C(N)NC(N)=NCC(CC)CCCC (centres undefined)	?	2	-6	-9.1	nt	-29
CCOC1=C2CN(S(=O)(=O)c3ccc(C)cc3)[C@H](c3cccc(Cl)c3)C[C@H]2[C@H]2C(=O)N(c3ccccc3)C(=O)[C@H]2C1	nt	-9	3	-4.9	nt	0
CCCC1=C(C(=O)OCC)C(c2ccc(N(C)C)cc2)n2ncnc2N1 (centres undefined)	-5%	-20	-19	-1.8	-3%	-7
Nc1c(C(=O)N2CCCCC2)sc(=S)n1-c1ccccc1	-10%	-7	-12	-0.6	3%	-7
Cc1cccc(C)c1OCCNC(=O)C(=O)NCc1ccco1	-4%	-13	-11	-1.3	6%	-5
CN1CCN(S(=O)(=O)c2cccc(C(=O)Oc3ccc(Br)cc3F)c2)CC1	-18%	?	-16	-3.2	8%	-11
COc1cccc(C(=O)Nc2nc3ccccc3[nH]2)c1	-2%	-2	-3	-1.2	6%	7
O=C(NCCOc1ccccc1Cl)c1cccc2c1C(=O)c1ccc(Cl)cc1S2(=O)=O	-7%	-7	1	-3.0	12%	-4
Cc1ccc(C)c(NC(=O)C2(C)CCN2C(C)C)c1 (centres undefined)	nt	1	1	-4.9	nt	-9
CC(=O)c1cc2c(cc1NS(=O)(=O)c1ccccc1Br)OCO2	?	-7	-15	-4.1	-2%[15.4 µM]	-10
Cc1ccc(CNC(=O)C2CC(c3cccc([N+](=O)[O-])c3)=NO2)o1 (centres undefined)	8%	-7	-20	0.4	nt	0
(cont.)
SMILES	gsp antag	Six1-Eya2 blk	CtBP-E1A blk	D2 ag	gsp agonist	D2 PAM
CCOc1ccc(Nc2nc3cc(S(=O)(=O)N(CC)CC)ccc3o2)cc1	-13%	-5	-3	-3.8	11%	0
COc1ccccc1OCCC(=O)OCC(=O)Nc1ccc(Br)cc1	-7%	1	19	-3.9	40%[15.4 µM]	-9
O=C(NN=Cc1cccc([N+](=O)[O-])c1)c1cccc2ccccc12	4%	8	-4	-3.7	-34%[inhibitor]	-14
CCOCc1c(C(=O)N2CCN(Cc3ccc(Br)s3)CC2)oc2ccccc12	1%	-8	-4	-0.1	-6%	0
CCCNC(=O)C1(C)CCN(Cc2ccc(C)c3ccccc23)C1 (centres undefined)	nt	-1	-8	-4.5	nt	-10
CSc1ccc(OC2(C)CCN(Cc3ccc4c(c3)OCCO4)C2)cc1 (centres undefined)	nt	0	-25	-6.3	nt	-19
COc1cccc(-c2nn(-c3ccc(C)cc3)cc2C(=O)N2CCN(C3CCS(=O)(=O)C3)CC2)c1 (centres undefined)	-13%	5	4	-1.4	?	-1
O=C(O)c1ccc(NS(=O)(=O)c2ccc3c(c2)OCCO3)cc1	2%	8	5	-1.0	-4%	-3
O=C(OCC(=O)N1CCOCC1)c1cncc(Br)c1	nt	-2	2	-0.5	-57%[inhibitor]	-2

High-throughput results: PubChem, National Center for Advancing Translational Sciences (NCATS)

Outcome played no part in choosing rows; 1.4% or so of the library scored in one or more.
